# Sa growth 42C: S. aureus growth inhibition at 42 and 30 °C, primary screen, LtaS inhibitor project, RN4220, two temperatures; AID 720641, 2013; relative growth, % (concentration not given with the values); OD600, 20 h, 42 °C; active compounds read low; actives 0.53% (n = 170,000);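 active means growth at 42 °C up to 50% and 20 or more points under that at 30 °C, or under 10% at both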;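 further: 300 nL library stock went into each well; scaled to the means of positive and negative controls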
# GIV-Gai inh: inhibitors of GIV peptide binding to Galpha-i3, primary screen, biochemical, fluorescence polarization, FITC-GIV GBA peptide, rat Galphai3; percent of control (FP), % (test concentration not listed); Guanine nucleotide-binding protein G(i) subunit alpha-3 (Rattus norvegicus), P08753; actives 0.42% (n = 210,000); 90 min; active compounds read low; scaled: aluminum fluoride 0%, vehicle 100%;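 active means replicate mean at 85% of control or lower, very high polarization wells dropped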;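 further: lower values mean more displacement of the GIV peptide from Galpha-i3; wells of about 15 µL received 100 nL stock; the first replicate is given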
# Target sequence (P08753 whole entry, looked up): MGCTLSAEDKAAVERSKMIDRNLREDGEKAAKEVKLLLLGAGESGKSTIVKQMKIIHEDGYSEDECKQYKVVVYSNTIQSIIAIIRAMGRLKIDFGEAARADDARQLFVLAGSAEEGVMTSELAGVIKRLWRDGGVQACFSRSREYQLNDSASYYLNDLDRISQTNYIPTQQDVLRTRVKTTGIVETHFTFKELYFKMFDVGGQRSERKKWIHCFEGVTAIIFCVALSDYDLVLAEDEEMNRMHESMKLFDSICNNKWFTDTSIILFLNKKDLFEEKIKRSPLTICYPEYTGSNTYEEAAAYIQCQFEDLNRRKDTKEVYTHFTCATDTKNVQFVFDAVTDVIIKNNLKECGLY
# HCMV NEC inh: inhibitors of HCMV UL50-UL53 interaction, biochemical, HTRF | inhibition, % (no concentration beside the values) | HCMV UL50-UL53 nuclear egress complex (human cytomegalovirus) | actives 0.15% (n = 190,000) | normalized percent inhibition;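 active means both replicates at 50% or more, plus weaker picks with an unusually low signal ratio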;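 further: stock transfer was 100 nL into about 20 µL; 0% = negative control wells and 100% = wells with untagged competitor protein; inactives centre near -12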
# Sa growth 42C second temp: also measured in Sa growth 42C; calls as there; relative growth, %; measured here: growth at 30 °C;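 optical density after 20 h as mean of two plates; 100% = untreated growth and lower means inhibition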
# * = called active by the depositor; x = not tested or not shown; & = joins results of further samples. Only part of the results is shown; the hit share may differ from the screen's.
SMILES,Sa growth 42C,Sa growth 42C second temp,GIV-Gai inh,HCMV NEC inh
Cc1c(C(=O)O)cc(-c2ccccc2)n1Cc1ccccc1,123.6,86.6,98.9,x
OC1(c2cccnc2)CCNCC1,99.0,101.1,97.8,5.8
CCOc1ccc2oc(C(=O)NN3C(C)CCCC3C)c(C)c2c1 (configuration not stated),71.2,89.6,x,-32.3
CC(C)C(=O)c1cn(Cc2ccccc2C#N)c2ccccc12,99.0,74.2,100.9,-10.4
C=CCN1C(=O)C2(C(C(=O)OCC)=C(N)Oc3ccccc32)c2c1c1ccccc1oc2=O (configuration not stated),105.7,97.3,101.4,-1.1
CC(N)C(=O)OC(C)(C)Cc1ccc(Cl)cc1 (configuration not stated),x,x,103.9,-27.7
C[C@H]1C2Cc3ccc(O)cc3C1(C)CCN2CC1CC1 (some centres not stated),x,x,105.5,-25.2
CCOc1ccc(NC2=NCCCS2)cc1,62.3&108.0,93.2&89.2,x,-0.1&-21.3
COc1cc(OC)cc(C(=O)Nc2ccc(Cl)cc2C(=O)c2ccccc2Cl)c1,98.5,101.8,101.8,-0.3
CC(C)(C)OC(=O)NC1[C@H]2CNC[C@@H]12 (some centres not stated),x,x,99.1,-13.7
CCNc1cc2oc(=O)cc(C(F)(F)F)c2cc1C,107.4,95.2,104.1,-10.1
c1cc2c(cc1N1CCNCC1)OCCO2,94.3,81.8,97.4,-6.4
Cc1ccc(OC(=O)N(C)C)c(CN(C)C)c1,91.0,81.7,106.8,-22.6
C=CCCN1CC2C[C@@H](C1)Cn1c2cccc1=O,105.9,82.3,x,-4.1
Cc1ccc(C(=O)C(C)c2c(O)c3ccccc3oc2=O)c(Cl)c1 (configuration not stated),90.5,79.2,102.7,-8.1
CCN1C(=O)NC(=O)/C(=C\c2cn(CC(=O)N3CCCCC3C)c3ccccc23)C1=O (configuration not stated),100.7,62.2,107.6,-15.8
S=P(Nn1cnnc1)(c1ccccc1)c1ccccc1,111.0,99.4,x,-18.5
O=C(CCNS(=O)(=O)c1ccccc1)Nc1ccc(Br)cc1C(=O)c1ccccc1,132.0,93.0,106.9,x
O=C1NC(=O)C(=Cc2cccc3ccccc23)C(=O)N1,95.5,96.6,101.8,20.0
N#Cc1cc2c(nc1SCC(=O)Nc1ccc(OC(F)(F)F)cc1)C1CCN2CC1,104.1,101.0,98.7,x
CCCN1CCc2cc(O)cc3c2[C@H]1Cc1ccc(O)c(O)c1-3,x,x,105.6,-48.6
CCc1nn2c(=O)cc(N3CCNCC3)nc2s1,90.3,86.8,100.3,4.0
COc1cc[n+](OC(=O)N2CCCCC2)c(C)c1,41.0,25.9,100.4,x
CCOC(=O)c1c(N)n(Cc2ccccn2)c2nc3ccccc3nc12,102.3,82.0,x,-38.5
CN(C)c1cccc(N2Cc3ccccc3C2=N)c1,86.2,75.4,x,-11.9
Cc1ccc(NC(=O)c2cccc(OC(=O)N(C)c3ccccc3)c2)cc1C,142.7,105.7,x,-3.6
CC12CCC3C(CCC45CC(=O)CCC34C5)C1CCC2=O (configuration not stated),82.8,81.6,104.4,-22.9
O[C@@H]1CCCC[C@H]1N1CCC(c2ccccc2)CC1,93.1,88.3,x,-8.8&-6.2
Cc1cc(Br)c2[nH]cc(CCN)c2c1,96.0,108.7,105.1,-18.9
O=P(NC1CCCCC1)(NC1CCCCC1)Oc1ccccc1,94.5,98.5,x,1.1

# Complete entries as entered above:
# `CCCN1CCc2cc(O)cc3c2[C@H]1Cc1ccc(O)c(O)c1-3` in the list: Sa growth 42C = x; Sa growth 42C second temp = x; GIV-Gai inh = 105.6; HCMV NEC inh = -48.6
# `CCOC(=O)c1c(N)n(Cc2ccccn2)c2nc3ccccc3nc12` in the list: Sa growth 42C = 102.3; Sa growth 42C second temp = 82.0; GIV-Gai inh = x; HCMV NEC inh = -38.5
# `S=P(Nn1cnnc1)(c1ccccc1)c1ccccc1` in the list: Sa growth 42C = 111.0; Sa growth 42C second temp = 99.4; GIV-Gai inh = x; HCMV NEC inh = -18.5

# Next section:
SMILES,Sa growth 42C,Sa growth 42C second temp,GIV-Gai inh,HCMV NEC inh
COc1ccc(CN2C(=O)NC(=O)/C(=C\c3cc(OC)c(OC)c(OC)c3)C2=O)cc1,x,x,105.2,-23.1
NCCc1ccc(OC(F)F)cc1,89.7,96.4,x,-6.6
O=C1CSC(c2ccccc2)c2c(-c3ccccc3)nn(-c3ccccc3)c2N1 (configuration not stated),127.1,77.0,107.4,-3.1&-7.7
CNC(=O)c1ccc(/C=C2/C(=O)C3CCN2CC3)cc1,97.3,89.9,99.4,-1.3
O=C(O)COc1ccccc1,80.5,87.7,x,-11.8
CC(C)OC(=O)Nc1ccccc1,94.8,79.6,x,-11.5
O=C1NC(=O)C(=Cc2ccc(N3CCOCC3)cc2)C(=O)N1,105.0,83.1,102.0,-1.6
Cc1[nH]c2ccccc2c1CCNCC(C)(C)C,96.3,90.3,x,-6.9
COP(=O)(OC)OC=C(Cl)Cl,97.3,92.4,x,-18.7
COc1cccc(-c2nn3c(=O)cc(CN4CCN(C(=O)COc5ccccc5C)CC4)nc3s2)c1,95.9,88.4,98.1,x
C=CCC1(NCCc2ccccc2)CCCCC1,86.1,83.4,96.8,-20.3
CSc1ccc(/C=C2\C(=O)C3CCN2CC3)cc1,89.4,108.5,101.0,-2.5
O=C(Cn1nc(-c2ccccc2)ccc1=O)N1CCC2(CC1)OCCO2,85.2,93.0,100.8,-84.3
COc1ccc(CN)cc1OC,102.9,88.0,x,-4.5
OC1/C(=C/c2ccccc2)N2CCC1CC2 (configuration not stated),92.0,73.5,104.3,-18.8
Cc1ccc(N2C(=O)CC(=O)NC2=S)cc1,85.9,89.5,105.4,-12.1
O=c1cccc2n1CC1CC2CN(c2nc(N3CCCCC3)nc(N3CCCCC3)n2)C1 (configuration not stated),102.7,90.8,105.0,-5.4
CN1CCN(c2ccccc2C=C(C#N)C#N)CC1,92.6,72.1,102.5,8.6
CC(C)NP(=O)(c1ccccc1)C(C)(C)C (configuration not stated),95.3,97.8,x,8.1
CC1CCC(C#N)(N(C)C(=O)CN2CC=C(c3ccccc3)CC2)CC1 (configuration not stated),113.0,94.0,x,-12.7
CC1CCCC(C2(O)C(=O)Nc3ccccc32)C1=O (configuration not stated),109.1,94.7,105.2,x
CN1CCc2[nH]c(=S)c(C#N)c(-c3cccs3)c2C1,97.9,67.4,171.3,-22.1
CC(C)(c1ccc(O)c(Cl)c1)c1ccc(O)c(Cl)c1,34.4,30.1,x,-5.9
COC(=O)C1=C(C)OC(N)=C(C#N)C12C(=O)Nc1ccc(C)cc12 (configuration not stated),61.7,48.3,105.1,7.0
C=CCN1C(=O)CN=C(c2cccs2)c2c1sc1c2CCC1,114.3,91.1,100.4,-35.0
C1CCC(NC2CCCC2)C1,96.1,93.2,100.9,-20.2
COc1ccc(Br)c(NC2=NCCS2)c1,118.1,112.0,102.4,-4.5
ON1C2CCCCC2N(O)C1c1ccccc1 (configuration not stated),105.1,104.2,93.6,-10.0
OCCNc1nc2ccccc2n1CN1CC=C(c2ccccc2)CC1,98.9,93.3,x,-36.5
CC(=O)Nc1nc(C)c(Oc2ccccc2)c(OC(=O)N(C)C)n1,102.7,92.3,97.6,-22.0

# Part of the list above, reduced to HCMV NEC inh and Sa growth 42C.
Structure	HCMV NEC inh	Sa growth 42C
CN1CCN(c2ccccc2C=C(C#N)C#N)CC1	8.6	92.6
COC(=O)C1=C(C)OC(N)=C(C#N)C12C(=O)Nc1ccc(C)cc12 (configuration not stated)	7.0	61.7
CC1CCCC(C2(O)C(=O)Nc3ccccc32)C1=O (configuration not stated)	x	109.1
CC(=O)Nc1nc(C)c(Oc2ccccc2)c(OC(=O)N(C)C)n1	-22.0	102.7

# New compounds follow.
SMILES,Sa growth 42C,Sa growth 42C second temp,GIV-Gai inh,HCMV NEC inh
CC(=O)OC1C2CCCC1C(N1CCCC1)CC2 (configuration not stated),104.9,87.4,109.1,-4.6
Cc1oc2cc3oc(=O)c(CCC(=O)N4CCCCC4)c(C)c3cc2c1C,101.7,83.8,98.4,16.5
FC(F)(F)c1cccc(CN2CCNCC2)c1,97.1,92.0,x,-19.3
Cc1cccc(-n2c(-c3ccco3)nc3ccccc3c2=O)c1,113.7,72.4,98.1,-14.9
Cc1nc2ccccn2c1P(=S)(N1CCCCC1)N1CCCCC1,88.2,56.7,x,7.2
CN1CCc2c(c(S)[nH]c(=S)c2C#N)C1,72.4,60.5,35.0*,-21.7
CCOP(=S)(NC(C)C)OCC,96.7,99.8,102.7,103.7
CCOC(=O)Cc1ccc(NC(=O)N2Cc3ccccc3-n3cccc3C2c2ccc(OC)cc2)cc1 (configuration not stated),x,x,101.4,-21.0
CCOc1ccc(NC2=NCCS2)cc1,107.3&82.6,98.0&83.2,104.6,5.2&-8.3
CCOP(=S)(OCC)SCSn1c(=O)oc2cc(Cl)ccc21,88.7,97.7,102.8,x
C[C@@H]1O[C@@H](O[C@H]2C[C@@H](O)[C@]3(CO)[C@H]4[C@H](O)C[C@]5(C)[C@@H](C6=CC(=O)OC6)CC[C@]5(O)[C@@H]4CC[C@]3(O)C2)[C@H](O)[C@H](O)[C@H]1O,87.3,85.2,98.1&97.9,-35.1&-2.6&-11.2
CCOC(=O)C1=C(C)OC(N)=C(C(=O)OCC)C12C(=O)Nc1ccccc12 (configuration not stated),103.8,82.6,x,-22.1
O=C(CN1CCCC1)c1cccc(C(F)(F)F)c1,103.1,91.9,x,-6.1
COC(=O)CC1=C(C(=O)OC)C2(C(=O)N(C)c3ccccc32)C(C(=O)OC)=C(N)O1 (configuration not stated),84.3,83.9,98.3,-7.1
Cc1ccc(NC2=NCCS2)cc1Cl,85.9,49.6,105.4,-21.5

# 2 records picked at random from the list so far:
SMILES,Sa growth 42C,Sa growth 42C second temp,GIV-Gai inh,HCMV NEC inh
CCOc1ccc(NC2=NCCS2)cc1,107.3&82.6,98.0&83.2,104.6,5.2&-8.3
COC(=O)CC1=C(C(=O)OC)C2(C(=O)N(C)c3ccccc32)C(C(=O)OC)=C(N)O1 (configuration not stated),84.3,83.9,98.3,-7.1

# Remaining list, next part.
SMILES,Sa growth 42C,Sa growth 42C second temp,GIV-Gai inh,HCMV NEC inh
COc1ccc(/C=C/c2nc3ccccc3c(=O)n2-c2ccc(C)cc2)cc1O,80.2,69.7,105.0,x
CCOC(=O)c1cc(C)sc1/N=C/C1C(=O)NC(=S)NC1=O,81.3,84.9,111.6,x
CC12CCC(O)CC1CCC1[C@@H]2CC(O)C2(C)C(C3=CC(=O)OC3)CCC12O (some centres not stated),89.7,82.6,103.0,-10.8
CC1(C)CSC(Nc2cccc(C(F)(F)F)c2)=N1,114.5,90.3,x,-23.2
C=CCN1C(=O)/C(=C\c2ccc(OC)cc2)C(=O)NC1=S,120.1,73.5,100.5,-13.2
CC1CCN(CC(=O)c2cccc(C(F)(F)F)c2)CC1,87.9,98.4,x,2.2
CCOC(=O)c1ccc(-c2ccc(C=C3C(=O)NC(=O)NC3=O)o2)cc1,96.6,89.7,102.5,-17.9
COc1ccccc1C1SCC(=O)Nc2c1c(C)nn2-c1cccc(C)c1 (configuration not stated),98.1,25.4,98.7,-5.1
CC(=O)N1CC(=O)Nc2ccc(Cl)cc2C1c1ccccc1 (configuration not stated),130.1,95.4,104.0,x
CC(C)N1CCC(c2ccccc2)C1 (configuration not stated),86.8,85.4,102.1,-17.9
COc1cccc(CNC2CN3CCC2CC3)c1 (configuration not stated),103.4,101.6,106.4,3.2
C[N+]1(C)C2CCC1CC(OC(=O)c1ccccc1)C2 (configuration not stated),106.3,87.2,98.0,x
c1ccc2nc(N3CCNCC3)ccc2c1,89.1,82.8,x,-50.6&-12.3&-19.1
Cn1c[n+](C)cc1C(O)c1ccccc1 (configuration not stated),107.5,89.7,98.8,x
CCc1ccc(OCC(=O)N2CCN(CCc3ccccn3)CC2)cc1,94.7,86.0,96.9,-21.0
O=C(NC(Cc1ccccc1)C(=O)N1CCC2(CC1)OCCO2)C1CCCCC1 (configuration not stated),88.7,89.9,99.4,-29.5
N=C1SC2CS(=O)(=O)CC2N1Cc1ccccc1Cl (configuration not stated),89.7,81.0,95.1,-12.2
O=C(Nc1ccc(Cl)cc1Cl)c1c(O)c2c(n(Cc3ccco3)c1=O)CCCC2,99.5,99.1,x,-3.2
COc1ccc(CN(C)CCc2ccc(OC)c(OC)c2)cc1,85.3,99.9,x,6.0
CC(c1ccccc1)C1C(C#N)=C(N)Oc2c1c(=O)oc1ccccc21 (configuration not stated),89.0,87.5,x,2.7
CC(C)(C)NCC(C)(O)c1ccc(Br)cc1 (configuration not stated),98.7,90.7,x,-19.7
N#CC(C#N)=NNc1ccccc1,0.0*,-0.2*,x,-70.2
CN(C)C(=O)Oc1cc(C(F)(F)F)nc(C2CC2)n1,114.0,66.3,97.4,-8.6
C=CCN1CC[C@]23c4c5ccc(O)c4O[C@H]2/C(=N/N=C2\CC[C@@]4(O)[C@H]6Cc7ccc(O)c8c7[C@@]4(CCN6CC=C)[C@H]2O8)CC[C@@]3(O)[C@H]1C5,95.4,94.3,97.8,-37.6
O=C1NC(=O)N(Cc2ccco2)C(=O)/C1=C\c1ccco1,98.0,72.5,61.3*,13.7
CN1C2CCC1CC(OC(=O)c1ccccc1)C2 (configuration not stated),89.4,83.6,98.0,-17.9

# Compound activity from PubChem BioAssay.
